High-throughput results deposited in PubChem by Broad Institute.
STK33 inh = human STK33 kinase inhibition; purified STK33, MBP phosphorylation, ADP-Glo luminescence; inhibition, % at 10 µM; 0.073% of 320,000 active;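 active means inhibition at or above 25%, using the most active replicate where run in duplicate; inactive means inhibition below 25%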
Target sequence (Q9BYT3 whole entry, looked up): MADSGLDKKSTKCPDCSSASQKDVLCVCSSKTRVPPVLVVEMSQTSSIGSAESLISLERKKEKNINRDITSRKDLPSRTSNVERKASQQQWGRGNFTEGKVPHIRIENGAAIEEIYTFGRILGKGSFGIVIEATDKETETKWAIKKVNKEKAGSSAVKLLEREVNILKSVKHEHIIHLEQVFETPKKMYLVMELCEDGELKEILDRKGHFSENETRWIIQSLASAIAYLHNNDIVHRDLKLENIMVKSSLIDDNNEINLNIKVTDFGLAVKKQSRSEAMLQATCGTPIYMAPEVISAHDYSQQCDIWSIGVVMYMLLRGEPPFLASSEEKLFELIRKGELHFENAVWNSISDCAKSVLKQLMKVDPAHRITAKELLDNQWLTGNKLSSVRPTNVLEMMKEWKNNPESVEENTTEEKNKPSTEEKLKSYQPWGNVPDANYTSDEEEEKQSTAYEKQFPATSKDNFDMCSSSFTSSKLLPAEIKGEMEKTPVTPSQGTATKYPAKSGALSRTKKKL
* hit, by the source's call.

STK33 inh,mol
-1.2,O=C(NCc1ccccn1)c1ccc(OC2CCN(Cc3ccccc3O)CC2)cc1
1.9,Cc1noc(C)c1C(=O)OCC(=O)c1c(N)n(CC(C)C)c(=O)n(C)c1=O
-0.3,COCCNC(=O)C(c1ccc(C)cc1)N(CCOC)C(=O)CCC(=O)Nc1nccs1 (configuration not stated)
-1.7,COc1ccc(-n2c(C)c(C)c3c(NCCN(C)C)ncnc32)cc1
1.1,CC1CN(CCCOc2ccccc2[N+](=O)[O-])CC(C)O1 (configuration not stated)
-0.8,COC(=O)c1sc2nc(CN3CCOCC3)nc(N3CCOCC3)c2c1C
2.0,Cc1c(Br)c(C(F)(F)F)nn1CC(=O)N1CCCC1
-1.9,CCCc1cc(=O)[nH]c(SCC(=O)OCc2ccccc2)n1
-7.6,CC1C/C(=C/c2ccncc2)C(=O)/C(=C/c2ccncc2)C1 (configuration not stated)
-0.5,O=C(CSc1nc2ccccc2s1)CSc1nc2ccccc2s1
-0.9,CCn1c(=O)cc(OCC(=O)NCc2ccc(C)o2)c2ccccc21
0.9,COC(=O)CCCn1nc(NC(=O)COc2ccc(F)cc2)cc1C
-1.8,CCc1cccc(OCC(O)Cn2c(N3CCCCC3)nc3c2c(=O)[nH]c(=O)n3C)c1 (configuration not stated)
-0.6,COC(=O)c1c(NC(=O)CCC(=O)O)sc(Cc2ccccc2)c1C
0.1,O=[N+]([O-])c1ccc(SCc2c(F)cccc2Cl)nc1
-1.1,CC(=O)Nc1cccc(NC(=O)CSc2nccn2Cc2ccco2)c1
-0.8,CCOc1ccc(C2C(C#N)=C(N)Oc3cc(O)ccc32)cc1OCC (configuration not stated)
-0.4,CN1[C@@H]2CC[C@H]1CC(OC(=O)c1c[nH]c3ccccc13)C2 (some centres not stated)
0.3,COc1ccc(CCC(=O)O)c(O)c1
-2.0,COc1ccc(-c2ccc(CCC(=O)O)n2NC(=O)c2ccc(C(C)(C)C)cc2)cc1
-0.8,CC(NC(=O)c1nn(C)c2c1CS(=O)(=O)c1ccccc1-2)c1ccccc1 (configuration not stated)
0.6,CCc1ccc(NC(=O)Cn2nnc(C(=O)NCc3ccc(OC)cc3)c2N)cc1
-0.1,O=C(NCC1CCCO1)C(c1ccc(N2CCOCC2)cc1)N(C(=O)Cn1nnc2ccccc21)c1ccccc1F (configuration not stated)
-0.5,CN(CCc1ccccn1)S(=O)(=O)c1ccccc1F
-3.2,CN1CCN(CCN2CCn3c2nc2ccccc23)CC1
-4.5,CC(C)c1ccc(C(=O)NN2C(=O)C3CCCCC3C2=O)cc1 (configuration not stated)
-4.3,O=C(CCS(=O)(=O)c1ccc(Cl)cc1)N1CCN(c2ccccc2F)CC1
-1.2,O=C(Oc1cccc([N+](=O)[O-])c1)c1cc(-c2ccccc2)nc2ccccc12
-4.0,Cc1ccc(Sc2c(C=O)c3ccccc3n2C)cc1
-1.8,O=C1c2ccccc2C(=O)N1Cc1cc(-c2ccc(Cl)cc2)no1
-2.1,Cc1cc(-c2onc(C)c2C(=O)Oc2ccc(Cl)cc2)no1
-0.5,COc1ccccc1C(=O)Nc1ccnn1C1CCN(C(C)CSC)CC1 (configuration not stated)
-0.9,Cc1cc2c(cc1S(=O)(=O)N1CCN(c3ccccc3F)CC1)OCC(=O)N2
-0.8,COC(=O)c1sc2ccccc2c1NC(=O)c1cccs1
4.3,COc1cccc(-c2nc(-c3ccc(C(=O)O)cc3)no2)c1
0.1,Cc1ccc(NC(=O)/C(=C/c2cccc([N+](=O)[O-])c2)NC(=O)C2CCCCC2)cc1
0.5,Cc1sc2ncnc(SCC(=O)N3CCCCC3)c2c1C
0.7,CCCOc1ccc(N2C(=O)CC(NCCc3ccc(S(N)(=O)=O)cc3)C2=O)cc1 (configuration not stated)
-0.6,O=C(COc1ccc2ccccc2c1)NC1CC1
-2.0,O=S(=O)(Nc1cccc2c1CCCC2)c1cccc(C(F)(F)F)c1
-0.4,COc1ccc(/C=C/C(=O)Oc2ccc(/C=N/NC(=O)c3ccncc3)cc2)cc1
0.4,CCCOc1ccc(-c2nnn(CC(=O)c3c[nH]c4ccccc34)n2)cc1
-0.2,Cc1cccnc1NC(=O)CCCNC(=O)c1ccc(Cl)cc1
-0.6,O=C(CCc1ccc(S(=O)(=O)N2CCOCC2)cc1)N1CCc2ccccc2C1
-0.2,COc1ccc(S(=O)(=O)N2CCOC2CNC(=O)C(=O)NCc2ccncc2)cc1OC (configuration not stated)
-0.5,Nc1ccc(C(=O)N2CCN(S(=O)(=O)c3ccc(Br)cc3)CC2)cc1[N+](=O)[O-]
0.2,CC1=CC(C)(C)N2C(=O)C(=O)c3cc(OC(=O)c4ccco4)cc1c32
0.3,CCCCCn1c(=S)[nH]c2cc(C(=O)N3CCCC3)ccc2c1=O
-4.0,N#CC1=C(N)SC(N)=C(C#N)C1C1CC=CCC1 (configuration not stated)
0.3,COc1ccc(OC)c2[nH]c(=O)c(CCNC(=O)c3ccc(S(=O)(=O)N4CCCCC4)cc3)cc12

A portion taken from the entries so far:
STK33 inh,mol
-4.5,CC(C)c1ccc(C(=O)NN2C(=O)C3CCCCC3C2=O)cc1 (configuration not stated)
-4.3,O=C(CCS(=O)(=O)c1ccc(Cl)cc1)N1CCN(c2ccccc2F)CC1
-1.2,O=C(Oc1cccc([N+](=O)[O-])c1)c1cc(-c2ccccc2)nc2ccccc12
-4.0,Cc1ccc(Sc2c(C=O)c3ccccc3n2C)cc1
-1.8,O=C1c2ccccc2C(=O)N1Cc1cc(-c2ccc(Cl)cc2)no1
-2.1,Cc1cc(-c2onc(C)c2C(=O)Oc2ccc(Cl)cc2)no1
-0.5,COc1ccccc1C(=O)Nc1ccnn1C1CCN(C(C)CSC)CC1 (configuration not stated)
-0.9,Cc1cc2c(cc1S(=O)(=O)N1CCN(c3ccccc3F)CC1)OCC(=O)N2
-0.8,COC(=O)c1sc2ccccc2c1NC(=O)c1cccs1
4.3,COc1cccc(-c2nc(-c3ccc(C(=O)O)cc3)no2)c1
0.1,Cc1ccc(NC(=O)/C(=C/c2cccc([N+](=O)[O-])c2)NC(=O)C2CCCCC2)cc1
0.5,Cc1sc2ncnc(SCC(=O)N3CCCCC3)c2c1C
0.7,CCCOc1ccc(N2C(=O)CC(NCCc3ccc(S(N)(=O)=O)cc3)C2=O)cc1 (configuration not stated)
-0.6,O=C(COc1ccc2ccccc2c1)NC1CC1
-2.0,O=S(=O)(Nc1cccc2c1CCCC2)c1cccc(C(F)(F)F)c1
-0.4,COc1ccc(/C=C/C(=O)Oc2ccc(/C=N/NC(=O)c3ccncc3)cc2)cc1

Additional records.
STK33 inh,mol
1.7,CCCCNC(=O)c1ccccc1NC(=O)CN(c1ccccc1)S(=O)(=O)N(C)C
8.3,COc1ccc(/C=N/NC(=O)c2ccc(C)cc2)cc1CN1CCN(c2ccc(F)cc2)CC1
-0.1,Cc1cc2c(=O)oc(-c3ccc(F)cc3)nc2s1
-1.1,Cc1ccc(C(=O)NCCSC(C)(C)C)cc1[N+](=O)[O-]
-1.9,O=C(CSc1nc2ccccc2n1Cc1ccc(Cl)cc1)N/N=C/c1ccccc1C(=O)O
-0.5,O=C(c1cc(C(=O)N2CCOCC2)c2nc3ccccc3n2c1)c1ccccc1O
-0.6,Cc1cc(-c2ccc(C)c(S(=O)(=O)Nc3cccc(CN4CCCC4)c3)c2)on1
-1.0,O=C(NCc1ccco1)C1CCCCC1
12,CCCCCCCC(=O)NC(Nc1ccccc1OC)C(Cl)(Cl)Cl (configuration not stated)
-2.4,Cc1ccc(-n2nnnc2CNC(=O)c2ccc3c(c2)OCO3)cc1C
-2.4,COC(CNC(=O)c1ccc(CS(=O)(=O)c2c(Cl)cccc2Cl)o1)OC
-1.4,CC(C)(C)n1nnnc1C(c1ccc(C#N)cc1)N1CCCC2(CCCCC2)C1 (configuration not stated)
12,O=C(/C=C/c1ccccc1)C1C(=O)c2ccccc2C1=O
-1.4,O=C(NC(=S)Nc1ccc(CN2CCOCC2)cc1)c1cc2ccccc2o1
0.4,C/C(Cl)=C\Cn1c(NCCc2ccccc2)nc2c1c(=O)n(C)c(=O)n2C
0.8,CC(=O)Nc1ccc(S(=O)(=O)N2CCC(=O)Nc3ccccc32)cc1
-2.3,O=C(NCc1nc2ccccc2[nH]1)C1=C[C@@H](c2ccccc2)C[C@@H](OCc2ccc(CO)cc2)O1
-0.1,CCOC(=O)c1c(C)[nH]c(C(=O)OCC(=O)Nc2ccc(OCC)cc2)c1C
2.2,CSc1cnc2c(N)nc(N(C)C)nc2n1
-1.3,COC(=O)C1NN=C(C(=O)c2ccc(Cl)cc2)C1c1ccc(OC)cc1 (configuration not stated)
-1.4,Cc1cccc(C)c1OC(=O)CCN1C(=O)C2C3C=CC(C4CC34)C2C1=O (configuration not stated)
-0.7,CC(=O)N(CCCN(C)C)c1nc2ccc(C)cc2s1
0.1,C/C(=N\O)C(C)(C)NC(=O)Nc1ccc(Cl)cc1
-1.1,O=C(CN1C(=O)C2C3CCC(C3)C2C1=O)NCc1ccco1 (configuration not stated)
0.2,C=CCNC(=O)/C=C/c1ccc(C(C)C)cc1
0.4,COc1cc(C)nc(N2CCCC(C(=O)Nc3cc(Cl)ccc3OC)C2)n1 (configuration not stated)
-1.6,Cc1cc(C(C)(C)C)ccc1OCCOCCN1CCCC1
-0.8,Cc1cc(Cl)c(S(=O)(=O)Nc2ccc3c(c2)OCCO3)cc1OCC(=O)NC1CCCCC1
-1.1,COc1cccc(/C(C)=N/NS(=O)(=O)c2ccc(Cl)cc2)c1
-0.6,COc1ccc(COCC(O)CN2CCc3ccccc3C2)cc1OC (configuration not stated)
-1.6,Fc1cccc(-c2n[nH]c(=S)n2-c2ccccc2)c1
-0.5,COC(=O)C1C(=O)C2=C(CC1C)NC(C)=C(C(=O)OC1CCCCC1)C2c1ccc(N(C)C)cc1 (configuration not stated)
-0.4,COc1cc(OC)cc(C(=O)N2c3ccc(F)cc3CCC2C)c1 (configuration not stated)
-0.7,CCCOc1ccc2c(=O)c(N3C(=O)c4ccccc4C3=O)c(C)oc2c1
1.7,COc1ccc(C(=O)Nc2ccccc2C(=O)N2CCCCC2C)cc1 (configuration not stated)
0.1,CCC(=O)Nc1ccc(C(=O)Nc2ccc3c(c2)OCO3)cc1
-1.1,COc1ccccc1NS(=O)(=O)c1ccc(C)c(C(=O)NCCCN2CCCC2=O)c1
-1.8,O=C(NCc1ccc(F)cc1)C1CCN(S(=O)(=O)c2ccc(Br)s2)CC1
0.6,Cc1ccc(NC(=O)c2cc(-c3ccc4c(c3)OCO4)on2)cc1C
-1.2,O=C(Nc1ccccc1N1CCCC1)c1ccc(Cl)c(S(=O)(=O)N2CCOCC2)c1
-1.0,Cc1cccc(C(=O)NCC(c2ccc(F)cc2)N2CCOCC2)c1 (configuration not stated)
-1.5,CCc1ccc(-c2ccc3nnc(SCC(=O)NCC4CCCO4)n3n2)cc1 (configuration not stated)
-0.6,CSc1cccc(CN2CCC(CO)(Cc3ccccc3)CC2)c1
-2.5,CCN=C1S/C(=C\c2sccc2C)C(=O)N1CC
-0.9,CC(=O)Nc1ccc(-c2csc(NC(=O)C3CCN(S(=O)(=O)c4cccs4)CC3)n2)cc1
0.4,COc1ccc(/C=C(\NC(=O)c2ccc([N+](=O)[O-])cc2)C(=O)NCCN2CCOCC2)cc1
-0.9,COC(=O)c1ccc(NC(=S)NCCc2ccc(OC)cc2)cc1
-0.4,CCc1cccc(NC(=O)CN(c2ccc(C)cc2)S(=O)(=O)c2c(C)noc2C)c1
-2.4,CC(C)c1ccc(S(=O)(=O)N2CCN(C(=O)C3CC3C)CC2)cc1 (configuration not stated)
-1.7,CCCC(C)C(=O)Nc1nc(C)c(-c2csc(Nc3ccccc3OC)n2)s1 (configuration not stated)

(list continues)
STK33 inh,mol
-0.7,Cn1c(C(=O)OCC(=O)NCc2ccco2)cc2sccc21
-0.7,CCCCn1c(N)c(N(CCOC)C(=O)c2cnccn2)c(=O)[nH]c1=O
8.8,COc1ccc(OC)c(C(c2nnnn2CCc2ccccc2)N2CCN(c3ccccc3)CC2)c1 (configuration not stated)
-1.3,Nc1cc(CN2C(=O)c3ccccc3C2=O)cc(Cl)c1O
0.1,Cc1cc2c(cc1S(=O)(=O)CCC(=O)NC1CCC(C)CC1)OCC(=O)N2 (configuration not stated)
-5.1,COC(=O)c1ccc(Oc2ccc3nncn3n2)cc1
0.7,Clc1cccc2sc(N3CCCC3)nc12
-1.3,CC(=O)c1ccc(N2CCN(c3ncccn3)CC2)c([N+](=O)[O-])c1
-0.3,CN(CCCN1CCOCC1)C(=O)c1cc(COc2ccc(F)cc2F)on1
0.5,O=C(NCC(c1cccnc1)N1CCN(c2ccccc2)CC1)OCc1ccccc1 (configuration not stated)
-3.3,Cc1ccc(C)c(Oc2cc(F)nc(N)n2)c1
1.9,COCc1ccc(C(=O)N2CCCC(CCC(=O)NCc3ccccc3F)C2)o1 (configuration not stated)
-1.1,COc1ccc(C(Nc2cc(C)ccn2)c2ccc3ccc(C)nc3c2O)cc1 (configuration not stated)
-0.2,CCOC(=O)c1c(N2C(=O)C3CC(C)=C(C)CC3C2=O)sc(C)c1C (configuration not stated)
-0.6,COc1cc(CNn2nnnc2N)ccc1OCc1c(Cl)cccc1Cl
-0.1,COc1ccc(/C=N/OCc2ccc(Br)cc2)c(OC)c1
-1.1,O=C(O)CN(CCc1ccccc1)S(=O)(=O)c1ccccc1
-1.7,COc1cc(CC(=O)OCC(=O)NC2CC2)cc(OC)c1OC
1.2,COCCn1c(SCC(=O)N2CC(=O)Nc3ccccc32)nc2ccccc2c1=O
-1.5,CCOc1ccc(N2C(=O)CC(NCc3ccc(F)cc3)C2=O)cc1 (configuration not stated)
-1.8,O=C(NNC(=S)NC1CCCCC1)c1cccs1
-0.7,O=c1ccc2cc(S(=O)(=O)N3CCN(c4ccc(Cl)cc4)CC3)ccc2o1
-1.5,CCN(CC(=O)Nc1ccccc1OC)CC(=O)Nc1sccc1C#N
-0.6,O=C1[C@H]2[C@@H](c3ccc(F)cc3)N3C(=O)N(c4cccc(F)c4)C(=O)[C@@]3(Cc3ccc(Cl)cc3)[C@H]2C(=O)N1C1CCCCC1
0.4,COc1nc(Nc2nc3ccccc3c(=O)[nH]2)nc2ccc(C)cc12

This is a subset, and most or all hits are left out here.
